Screening data from PubChem BioAssay.
Rango complex inh – prevents formation of the Rango-importin beta complex. Q14974. AID 540263. 340,000 tested, 0.031% active. Potency, µM (series often up to 92.2 µM), inactives show at the top dose inhibition of complex formation. Rango CFP/YFP FRET sensor + importin beta, 45 min; active = rising FRET ratio curve, often small or poorly fitted; inconclusive = mostly compound fluorescence or quenching in the first reads; inactive = flat curves in all reads;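 further: potency means the concentration at half of the fitted maximal effect; 0% = DMSO wells and 100% = buffer wells lacking importin beta; nearly all actives have a fitted effect of over 15% in size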
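FRET biosensor Rango (snurportin 1 IBB between N-terminal EYFP and C-terminal Cerulean), 50 nM in PBS/1 mM DTT/0.02% Tween-20/0.1% BSA, preincubated 5 min RT with compound; 0.125 microM importin beta added, 45 min RT, CFP/YFP FRET ratio read.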
miR-21 reporter – miR-21 reporter, rising signal; 340,000 tested, under 10 active; HeLa miR-21 FLuc reporter, luciferase, 48 h; Potency, µM (top dose mostly 38.3 µM), for the others: top-dose reporter change, positive = more light; active = well fitted rising curve with a large enough effect; inconclusive = small, poorly fitted or top-dose-only effect; inactive = no such curve, though single readings can be large or run the other way;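 further: % of control where 0% means no effect; miR-21 action dims this reporter so a rising signal means less miR-21 action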
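HeLa cells stably expressing CMV-driven firefly luciferase with a downstream miR-21 binding sequence, endogenously expressing miR-21, were treated with titrations (up to about 40uM final) for 48 hours at 37 degree Celsius. Luciferase luminescence was read after lysis.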
Rango release inh – inhibition of RanGTP-driven Rango-importin beta dissociation | O95149+P62826 | Biochemical FRET Rango-importin beta, RanGTP-induced dissociation | Potency, µM (top dose mostly 46.1 µM), without a hit: top-dose activity change, negative = inhibition | 340,000 tested, 0.071% active | AID 540253; active means falling FRET ratio curve, often poorly fitted, with flat reads before Ran was added; inconclusive means other falling curves, or compound fluorescence or quenching; inactive means flat or rising ratio curve;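 further: potency means the concentration at half of the fitted maximal effect; % of control where 0% means no effect; nearly all actives have a fitted effect of over 45% in size; -100% = wells without RanGTP and RCC1; the record marks most hits as doubtful in a second field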
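Rango (0.1 uM)–importin beta (0.25 uM) complex; RanGTP-RCC1 trigger; 45 min RT; CFP/YFP FRET read.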
GLA inh pH 4.5 – alpha-galactosidase A (human) inhibition, pH 4.5; purified enzyme, 4-MU-alpha-Gal fluorescence, pH 4.5; activity change, negative = inhibition, % at 105 µM; 230,000 tested, under 10 active; AID 1467; inconclusive = small, poorly fitted or top-dose-only inhibition, or a rising curve; inactive = flat fitted curve, though single readings scatter; no compound was filed as active;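 further: 0% = full activity with enzyme and -100% = basal without enzyme; dose as in the result columns while the protocol names 77 µM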
Target sequence (P06280 whole entry, looked up): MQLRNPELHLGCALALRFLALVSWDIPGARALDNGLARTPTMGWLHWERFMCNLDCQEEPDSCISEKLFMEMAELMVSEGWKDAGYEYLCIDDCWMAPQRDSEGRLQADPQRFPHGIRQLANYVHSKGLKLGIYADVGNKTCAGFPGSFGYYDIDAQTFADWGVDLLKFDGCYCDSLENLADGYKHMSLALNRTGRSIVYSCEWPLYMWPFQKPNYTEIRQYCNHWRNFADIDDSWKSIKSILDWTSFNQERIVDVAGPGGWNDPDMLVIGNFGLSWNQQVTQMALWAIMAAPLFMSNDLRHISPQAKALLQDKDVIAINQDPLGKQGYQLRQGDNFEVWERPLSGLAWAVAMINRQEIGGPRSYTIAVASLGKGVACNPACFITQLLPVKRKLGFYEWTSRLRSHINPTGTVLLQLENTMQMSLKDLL
* hit, by the source's call; ? = inconclusive; · = no result given; & = joins results of further samples.

Below each SMILES: miR-21 reporter | Rango release inh | Rango complex inh | GLA inh pH 4.5
O=C1OC(N2C(=O)CC[C@H]2C(=O)Nc2ccc3c(c2)OCO3)c2ccccc21 (stereo partly specified)
    -10% | -4% | 0.1% | ·
CCN(CC)c1nc(N)c2c(N)n(-c3ccccc3C)c(=S)c(C#N)c2c1C#N
    -4% | ? | ? | -3
O=C(N/N=C/c1ccccn1)c1cccc(S(=O)(=O)N2CCCC2)c1
    -2% | -1% | 9.4% | 9
O=C(CSc1nc(C2CC2)nc2ccccc12)NCc1ccc2c(c1)OCO2
    0% | · | · | -2
CCCOc1ccc(-c2cc3onc(-c4ccccc4)c3c(=O)n2C)cc1
    · | -19% | -1.0% | ·
O=C(CCCN1C(=O)/C(=C/c2cccs2)SC1=S)Nc1cc([N+](=O)[O-])ccc1O
    -2% | -10% | 1.8% | ·
CCCCn1c(N)c(N(CC(C)C)C(=O)C2CSC3(C)CCC(=O)N23)c(=O)[nH]c1=O (stereo unspecified)
    · | -8% | 1.8% | ·
Cc1ccccc1NC(=O)/C(C#N)=C/c1ccccc1C(F)(F)F
    -2% | ? | ? | -1
O=C(c1nc2ccccn2c1CNCCn1ccc2ccccc21)N1CCOCC1
    1% | 17% | -0.9% | -1
c1ccc(Cc2ccc(OCCN3CCOCC3)cc2)cc1
    -21% | -4% | 0.3% | ·
CCOc1cc(S(=O)(=O)N2CCN(C(=O)c3ccco3)CC2)ccc1F
    -3% | 0% | 0.5% | ·
CCOC(=O)CCC(=O)N1CCOCCN(C(=O)CCC(=O)OCC)CCOCC1
    -1% | 16% | 0.2% | 7
COc1cc(-n2c(=O)c3ccccc3n(CC(=O)c3ccc(Br)cc3)c2=O)cc(OC)c1OC
    0% | 3% | 1.1% | 11
COc1cccc(-c2nnc(N)o2)c1
    -16% | 16% | 1.6% | 5
O=C(/C=C/c1ccccc1)N(c1ccccn1)C1CCCCC1
    -11% | -1% | 0.2% | -5
CCn1c(/C=C/Nc2ccccc2)[n+](CC)c2ccc(Cl)cc21
    -1% | 3% | 6.3% | -1
COc1ccc(S(=O)(=O)N(C(=O)c2ccncc2)c2ccc3oc4c(c3c2)CCCC4)cc1
    22% | -16% | -3.0% | 0
N=C1C(c2ccccc2)=C(O)CN1NC(=O)c1ccc(Cl)cc1
    -4% | 4% | -3.3% | 1
CCOc1ccc(C(C)=O)cc1NC(=O)/C=C\C(=O)O
    0% | -8% | -0.3% | 6
Cc1nc2ccc(NC(=O)CCC3CCCC3)cc2s1
    -53% | -1% | -3.6% | ·
CCn1c2ccccc2c2cc(NC(=O)CCCN3C(=O)CCC3=O)ccc21
    -12% | 10% | 4.9% | 0
Cc1cc(C)n(-c2nc3ccccc3nc2Nc2ccc(CC(=O)O)cc2)n1
    1% | ? | ? | -3
CO[C@H]1C=CO[C@@]2(C)Oc3c(C)c(O)c4c(O)c(c(C=NN5CCN(C)CC5)c(O)c4c3C2=O)NC(=O)C(C)=CC=C[C@H](C)[C@H](O)[C@@H](C)[C@@H](O)[C@@H](C)[C@H](OC(C)=O)[C@@H]1C
    7% | -25% | 10% | -3
Nc1ccccc1C(=O)NNc1ncc(C(F)(F)F)cc1Cl
    -9% | -7% | -0.4% | -4
O=C(COC(=O)c1ccc(F)cc1F)NC1CC1
    -3% | -19% | -6.0% | -6
COc1ccc(-c2nc3cc([N+](=O)[O-])ccc3o2)cc1OC
    -27% | 1% | ? | 5
CCN(CC)c1ccc(/C=N/N2CCN(Cc3cccc4ccccc34)CC2)c(O)c1
    -2% | -10% | 0.5% | -2
Cc1cccn2c(=O)c(/C=C(\C#N)C(=O)NC3CCS(=O)(=O)C3)c(Oc3ccccc3Cl)nc12 (stereo unspecified)
    -9% | ? | ? | ·
O=C(O)[C@H]1CCCC[C@H]1C(=O)Nc1ccc(S(=O)(=O)N2CCOCC2)cc1
    0% | 24% | -3.1% | ·
Cc1cc(CNC(=O)Cc2c(F)cccc2Cl)nn1C
    -27% | 4% | -1.6% | -1
COC(=O)c1cc(S(=O)(=O)NCC2CCN(Cc3ccc(Cl)cc3)CC2)c[nH]1
    9% | 6% | -0.5% | ·
CC(NC(=O)CSc1nc(=O)cc(N)n1-c1ccccc1)c1ccccc1 (stereo unspecified)
    -3% | -8% | -2.1% | -7
C[C@H]1C=C(C(=O)O)O[C@@H](OCc2ccc(CO)cc2)C1
    · | -10% | -2.3% | ·
COc1ccc(/C=C/C(=O)OCC(=O)N2CCCCCC2)cc1OC
    · | 0% | 0.0% | ·
O=C(Nc1ccc2c(c1)C(=O)N(c1ccccc1)C2=O)c1cccs1
    -2% | 1% | -3.0% | 5
CN(CC(=O)Nc1ccccc1Cl)C(=O)Cn1cnc2ccccc2c1=O
    · | 0% | -2.2% | ·
CC(C)C(NC(=O)c1c(F)cccc1F)C(=O)N1CCN(S(=O)(=O)c2ccc(F)cc2)CC1 (stereo unspecified)
    · | 13% | -0.5% | ·
N/C(=N\NC(=O)c1sccc1OCc1ccc(Cl)cc1Cl)c1ccccn1
    30% | -8% | 0.0% | 0
O=C(Cn1c(-c2ccccn2)nc2ccccc21)N/N=C/c1ccccn1
    -1% | 9% | -4.1% | -10
COCc1cc(NCc2ccc(Cl)cc2)nc(C)n1
    0% | 1% | 2.7% | ·
O=C1CCCc2nc3c(cc21)C(O)Oc1c-3ccc2ccccc12 (stereo unspecified)
    -51% | ? | ? | 2
COc1ccc(N(CC(=O)NC2CCCC2)C(=O)Cn2nnc(-c3ccc(F)cc3)n2)cc1
    0% | 2% | -0.7% | ·
O=C(COC(=O)c1ccccn1)NC12CC3CC(CC(C3)C1)C2
    -7% | 6% | -4.3% | 10
CN(C)S(=O)(=O)c1cccc(NS(=O)(=O)c2ccc(Cl)s2)c1
    3% | 14% | -1.2% | 2
C/C(Cc1ccccc1)=N\NC(=O)CCCCCC(=O)N/N=C(\C)Cc1ccccc1
    -3% | -3% | 2.7% | -1
N=c1c2c(-c3ccccc3)c(-c3ccccc3)n(Cc3ccco3)c2ncn1CCCn1ccnc1
    22% | 1% | 2.9% | ?
COc1ccc(CN(C)C(=O)CCN(c2ccccc2)S(=O)(=O)c2ccc(C)cc2)c(OC)c1
    · | 7% | -1.0% | ·
O=C(O)c1ccccc1C(=O)Nc1ccc(S(=O)(=O)Nc2ccc(F)cc2)cc1
    -6% | -8% | 2.9% | ·
COc1ccc(Cl)cc1N/C(N)=N/c1nc(CSc2ccc(C)cc2)cc(=O)[nH]1
    0% | -10% | -4.6% | -11
Cc1ccc(-c2ccc(SCC(=O)N3CCCc4ccccc43)nn2)cc1
    -22% | · | · | -5
COc1ccc([C@H](OC)[C@@]2(Cc3ccc(O)cc3)N=C(N)N(C)C2=O)cc1
    · | 0% | 3.3% | ·
O=C(COC(=O)CCNS(=O)(=O)c1cccs1)Nc1ccccc1
    · | -4% | -2.4% | ·
Cn1c(=O)c2sccc2n2c(CCCC(=O)Nc3ccccc3)nnc12
    0% | -10% | 5.4% | ·
O=C(CSc1nnc(-c2ccncc2)n1-c1ccccc1)Nc1ccc(C(=O)O)cc1
    2% | 32% | -6.0% | -8
CN(CC(=O)Nc1c(Cl)cccc1Cl)C(=O)Cc1ccc(S(=O)(=O)N2CCOCC2)s1
    -1% | 13% | -3.3% | ·
Cc1nc2ccc(Cl)cc2nc1C
    -4% | -12% | 2.4% | 3
CCOC(=O)c1c(C)n(CCOc2ccccc2)c2ccc(O)cc12
    -2% | 6% | 2.7% | ·
O=C1C(=NO)CCc2ccccc21
    · | -3% | -3.2% | ·
C[C@H](NC(=O)[C@@H]1CSC2c3ccccc3C(=O)N21)C(=O)NCc1c(F)cccc1Cl (stereo partly specified)
    6% | -14% | 3.4% | ·
CCCCOC(=O)Nc1ccc(S(=O)(=O)Nc2onc(C)c2C)cc1
    -6% | -2% | 1.7% | ·

(continued)
Below each SMILES: miR-21 reporter | Rango release inh | Rango complex inh | GLA inh pH 4.5
CC(C(=O)OCC(=O)N1CCN(c2ccccc2)CC1)N1C(=O)c2ccccc2C1=O (stereo unspecified)
    · | 2% | 0.0% | ·
CCNc1ccc(S(=O)(=O)NCCN(C)C)cc1[N+](=O)[O-]
    -3% | 20% | ? | 2
Fc1ccccc1NC(=S)N(CCN1CCCCC1)Cc1ccco1
    0% | 7% | 16% | -17
CC1(C)Cc2ccccc2C(/C(=N\Nc2cccc(Cl)c2)C(N)=O)=N1
    22% | 5% | 8.3% | -22
CC(=O)c1cccc(OCc2cc(C(=O)N3C[C@H]4CC[C@H]3C4)no2)c1
    -61% | -7% | -0.5% | ·
O=C(COc1ccccc1)NCC(=O)N/N=C/c1ccc(Cl)cc1
    -1% | -1% | 0.3% | ·
O=C(CCS(=O)(=O)c1cc2c(cc1Cl)NC(=O)CO2)NCc1ccccc1
    -4%&-4% | -7% | -2.7% | ·
COc1ccc(OC)c(C2Nc3ccccc3NC3=C2C(=O)CC(C)(C)C3)c1 (stereo unspecified)
    -22% | -25% | ? | ·
CCCNC(=O)NC(=O)CSc1ncc(C(F)(F)F)cc1Cl
    -3% | 11% | -2.9% | -1
Nc1c(C(=O)NCC2CCCO2)c2nc3ccccc3nc2n1-c1ccccc1 (stereo unspecified)
    14% | ? | ? | ?
COc1cc(/C=C2\SC(=S)NC2=O)ccc1OS(=O)(=O)c1ccccc1
    11% | · | · | -8
CCN(CC)S(=O)(=O)c1ccc(C)c(NC(=O)CSc2nc3ccccc3[nH]2)c1
    9% | -2% | 4.3% | -17
O=S(=O)(Nc1ccc(F)cc1)N1CCOCC1
    1% | -12% | 1.5% | ·
O=C(COC(=O)c1c[nH]c(=O)[nH]c1=O)Nc1ccccc1Br
    -3% | 18% | 4.7% | -4
CC(C)C(NC(=O)c1ccco1)C(=O)OCC(=O)Nc1ccc(C(N)=O)cc1 (stereo unspecified)
    4% | 8% | -3.3% | 3
CCc1nnc(NC(=O)c2cccnc2)s1
    -21% | 4% | -1.7% | -2
O=C(Nc1ccc(F)c(F)c1)C1CCCCC1
    · | -1% | -1.0% | ·
CCCSc1oc(-c2ccco2)nc1S(=O)(=O)c1ccc(C)cc1
    -6% | 22% | 1.0% | ·
O=C(Nc1ccc(S(=O)(=O)Nc2ccccn2)cc1)c1ccccc1
    0% | 6% | -2.3% | ·
C/C(=N\NC(=O)c1cc(-c2ccccc2C)nc2ccccc12)c1cccnc1
    -2% | -11% | 3.3% | ·
COC(=O)c1c(C)nc(C)c2c(=O)oc3ccccc3c12
    -8% | 3% | 0.0% | 4
CC(=O)O[C@]1(C(C)=O)CC[C@H]2[C@@H]3C=C(Cl)C4=CC(=O)CC[C@]4(C)[C@H]3CC[C@@]21C
    -1% | -12% | ? | 4&-17

A portion of the library; the hit share may differ from the screen's.
